# HPGD inh – inhibitors of human 15-hydroxyprostaglandin dehydrogenase (HPGD) | P15428 | Potency, µM, inactives show at the highest dose activity change, negative = inhibition, actives largely listed as inhibitors | purified HPGD, NADH fluorescence kinetic, PGE2 substrate | 150,000 tested, 4.3% active | AID 894; active = well fitted inhibition curve with a large enough effect (not every such curve was filed as active); inconclusive = small, poorly fitted or top-dose-only effect, or another doubt; inactive = no such curve, though single readings can be large or run the other way;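 further: top concentration of the series not given in the record; plate controls included wells without enzyme; inactives centre near -10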
# Target sequence (P15428 whole entry, looked up): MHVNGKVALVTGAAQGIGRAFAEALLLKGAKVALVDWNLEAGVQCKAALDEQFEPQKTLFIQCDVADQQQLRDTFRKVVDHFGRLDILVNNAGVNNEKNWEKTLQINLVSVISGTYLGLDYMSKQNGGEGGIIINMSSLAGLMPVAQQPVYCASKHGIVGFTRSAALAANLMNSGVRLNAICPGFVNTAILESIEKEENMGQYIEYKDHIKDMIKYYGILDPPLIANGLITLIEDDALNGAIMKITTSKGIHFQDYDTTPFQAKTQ
#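 20 nM HPGD preincubated 15 min at room temperature with compound in 50 mM Tris-HCl pH 8, 0.01% Tween 20. Started with 1 mM NAD+ and 30 uM prostaglandin E2; NADH fluorescence (360/450 nm) read 5 times over 30-s intervals, last minus first.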
# The depositor's hits bear a star; ? = inconclusive; & = joins results of further samples. On the % scale 0 is the no-effect control and ±100 the full control effect; potency means the concentration at half of the fitted maximal effect.
SMILES,HPGD inh
Cn1c(O)c(C(c2ccccn2)c2c(O)n(C)c(=S)n(C)c2=O)c(=O)n(C)c1=S,-2.3%
CN(C)[C@@H]1C(=O)C(C(N)=O)=C(O)[C@]2(O)C(=O)C3=C(O)c4c(O)ccc(Cl)c4[C@](C)(O)[C@H]3C[C@@H]12,-3.8%
CCn1c(P(C)(=O)O)nc2ccccc21,-0.4%
CCN(CC)c1ccc(CC2C(=O)N(C)C(=O)N(C)C2=O)cc1,-12.5%
NCCc1ccc(S(=O)(=O)F)cc1,-8.9%
CC[C@H]1C2CC3[C@@H]4N(C)c5ccccc5[C@]45C[C@@H](C2[C@H]5O)N3[C@@H]1O (some centres not stated),8.0%
O=C(N/N=C/c1c(O)n(Cc2ccccc2)c(=O)[nH]c1=O)c1ccccc1O,?
O=C(c1cnccn1)N1CCC2(CC1)CN(Cc1ccncc1)C2,0.0%
CCN(CC)c1ccc(CN2CC=C(c3ccc(F)cc3)CC2)cc1,-12.3%
Cc1ccc2nc(-c3ccncc3)cc(C(=O)N3CCC4(CC3)OCCO4)c2c1,-21.6%
CCN1C[C@@]2(COC(=O)c3ccccc3N3C(=O)CC(C)C3=O)CC[C@H](OC)[C@]34C5C[C@@H]6[C@@H](OC)C[C@@](O)(C5[C@H]6OC)[C@@](O)(C13)[C@@H](OC)C24 (some centres not stated),-4.0%
COc1ccc(-n2c(O)c(C=NCCCn3ccnc3)c(=O)[nH]c2=O)cc1,-7.2%

# Some of the entries so far, field by field.
Molecule: CCN(CC)c1ccc(CN2CC=C(c3ccc(F)cc3)CC2)cc1
  HPGD inh = -12.3%
Molecule: Cc1ccc2nc(-c3ccncc3)cc(C(=O)N3CCC4(CC3)OCCO4)c2c1
  HPGD inh = -21.6%
Molecule: CCN1C[C@@]2(COC(=O)c3ccccc3N3C(=O)CC(C)C3=O)CC[C@H](OC)[C@]34C5C[C@@H]6[C@@H](OC)C[C@@](O)(C5[C@H]6OC)[C@@](O)(C13)[C@@H](OC)C24 (some centres not stated)
  HPGD inh = -4.0%
Molecule: COc1ccc(-n2c(O)c(C=NCCCn3ccnc3)c(=O)[nH]c2=O)cc1
  HPGD inh = -7.2%

# (list continues)
SMILES,HPGD inh
C[C@H](N)CN1CCc2ccc(Br)cc21,-9.7%
CCC(C)N1C(=O)/C(=C\c2cc3c4c(c2)CCCN4CCC3)C(=O)NC1=S (configuration not stated),22.4µM*
c1cncc(CNCCN2CCNCC2)c1,-2.0%
CC(C)(O)c1[se]c2ccccc2c1I,-24.2%
CC(C)CN(CC(C)C)c1ccc(C=C2C(=O)NC(=S)NC2=O)cc1[N+](=O)[O-],8.91µM*
C/C(=N\N1CCN(C)CC1)c1c(O)[nH]c(=O)[nH]c1=O,-8.7%
CCOC(=O)c1c(N)n(CCCOC(=O)c2ccco2)c2nc3ccccc3nc12,?
Cc1nn(-c2ccccc2)c(Cl)c1C1C(C#N)=C(N)Oc2c1c(=O)oc1ccccc21 (configuration not stated),-19.9%
CC(C)(C)NCC(O)c1ccccc1Cl (configuration not stated),-11.6%&-3.5%
COc1ccccc1OCC(=O)Nc1ccc(Cl)cc1C(=O)c1ccccc1,-21.1%
Cc1nn(CCC#N)c2c1P(=S)(N1CCCC1)OC(c1ccc(F)cc1)=N2 (configuration not stated),20µM*
[O-][Cl+]O,-9.3%
CCOC(=O)C(O)(c1ccc(NC(=O)c2ccco2)c(OC)c1)C(F)(F)F (configuration not stated),-27.1%
CCOCCCNC(=O)C1c2cc(OC)c(OC)cc2C(=O)N2CCCCC12 (configuration not stated),-16.5%
CCNC(=O)NC(=O)C(C)OC(=O)c1c(C)nn(Cc2ccccc2)c1Cl (configuration not stated),-11.1%
Cn1c(=O)c2c(nc(N/N=C/c3c(O)n(-c4ccccc4)c(=S)[nH]c3=O)n2C)n(C)c1=O,-21.7%
O=S(=O)(Cl)c1ccccc1,-11.2%
S=c1[nH]nc(-c2ccccc2)n1C1C=CCCC1 (configuration not stated),?
CCCN1CCC[C@@H](c2cccc(C#N)c2)C1,-14.8%
C=C(C)C1CNC(C(=O)O)C1CC(=O)O (configuration not stated),4.1%
CCCCCP(=O)(O)c1ccccc1,2.2%
CNC(=O)OCCc1nccn1C,6.2%
COc1cc(C(c2c(O)c3ccccc3oc2=O)c2c(C)n(C)n(-c3ccccc3)c2=O)ccc1O (configuration not stated),-3.2%
O=c1c2ccccc2nc(-c2ccc(Cl)cc2Cl)n1-c1nccs1,-8.1%

# Four of these compounds in a different format:
CCCCCP(=O)(O)c1ccccc1
  HPGD inh = 2.2%
CCOCCCNC(=O)C1c2cc(OC)c(OC)cc2C(=O)N2CCCCC12 (configuration not stated)
  HPGD inh = -16.5%
O=c1c2ccccc2nc(-c2ccc(Cl)cc2Cl)n1-c1nccs1
  HPGD inh = -8.1%
CCCN1CCC[C@@H](c2cccc(C#N)c2)C1
  HPGD inh = -14.8%

# (further entries)
SMILES,HPGD inh
CCCc1nnc(NC(=O)CCC(=O)N2CCN(CCOC(c3ccccc3)c3ccccc3)CC2)s1,-9.9%
Cc1ccc(S(=O)(=O)NC(CC(=O)N2CCC3(CC2)OCCO3)c2ccco2)cc1 (configuration not stated),-1.6%
CCCCOP(=O)(CN1CCOCC1)OCCCC,-7.2%
CC(C)NS(=O)(=O)c1ccc(OCC(=O)N2CCN(C)CC2)cc1,-11.1%
CN1CCC(n2nccc2N)CC1,-16.7%
COc1ccccc1/C=N/N=C(/N)N[N+](=O)[O-],-14.4%
CCOC(=O)c1sc(N=Nc2c(O)[nH]c(=O)[nH]c2=O)c(C(=O)OCC)c1C,-18.6%
COC[C@H]1OC(=O)c2coc3c2[C@@]1(C)C1=C(C3=O)[C@H]2CCC(=O)[C@@]2(C)C[C@H]1OC(C)=O,31.6µM*
CC(=O)O[C@@H]1[C@H]2CC[C@@H]3[C@]1(C[C@@H](OC(C)=O)[C@@]1(O)C([C@@H]4O[C@@H]4C1(C)C)[C@]3(C)O)C[C@@]2(C)O (some centres not stated),-15.2%
COc1ccc(C2(C#N)CCN(C)CC2)cc1,-7.8%
CCCCC/C=C\C/C=C\C/C=C\C/C=C\CCCC(=O)NC1CC1,?
CC(C)COP(=O)(OCC(C)C)C(O)c1cccnc1 (configuration not stated),-0.6%

# Laid out differently: results already given.
> COc1ccc(C2(C#N)CCN(C)CC2)cc1
  HPGD inh = -7.8%
> CC(C)NS(=O)(=O)c1ccc(OCC(=O)N2CCN(C)CC2)cc1
  HPGD inh = -11.1%
> CCCCC/C=C\C/C=C\C/C=C\C/C=C\CCCC(=O)NC1CC1
  HPGD inh = ?
> CCCCOP(=O)(CN1CCOCC1)OCCCC
  HPGD inh = -7.2%

# Going on with the list.
SMILES,HPGD inh
COCCOC(=O)C1=C(N)Oc2c(c(=O)oc3ccccc23)C1c1ccncc1 (configuration not stated),-12.7%
CSC(=S)NCc1c[nH]c2ccccc12,-14.9%
CCOC(=O)c1c(NC(NC(=O)CF)C(Cl)(Cl)Cl)sc2c1CCCC2 (configuration not stated),-10.5%
CCCCOCC1CO1 (configuration not stated),-9.0%
O=C1CC[C@@]2(O)C3Cc4ccc(O)c5c4C2(CCN3CC2CC2)[C@H]1O5 (some centres not stated),-3.0%
C[C@H]1C(=O)O[C@H]2CCN3CC=C(COC(=O)[C@](C)(O)[C@@]1(C)O)C23 (some centres not stated),2.0%
Cc1ccc2c(c1)C(c1ccccc1)NCC(=O)N2 (configuration not stated),-9.0%
COc1cc(C2SCC(=O)Nc3c2c(C)nn3-c2ccccc2)cc(OC)c1OC (configuration not stated),-18.0%
Oc1ccc(Cl)cc1Sc1cc(Cl)ccc1O,2.51µM*
O=C1NCN(c2ccccc2)C12CCN(CCCOc1ccc(F)cc1)CC2,2.9%
Cc1nn(C)c(C)c1/C=C1/CC2C3CC=C4CC(O)CCC4(C)C3CCC2(C)C1=O (configuration not stated),-4.1%
CCOC(=O)C(NC(=O)CCl)(Nc1ccc(C(O)(C(=O)OCC)C(F)(F)F)cc1)C(F)(F)F (configuration not stated),-0.4%
CCCCOc1ccc(CC2C(=O)N(C)C(=O)N(C)C2=O)cc1,-18.9%
COc1cc2c(cc1O)C[C@H]1c3c(cc(OC)c(O)c3-2)CCN1C,?
Cc1ccccc1C1=NCC(=O)N(CC(=O)N2CCCCC2)c2sc(C)c(C)c21,-6.6%
C[C@H](NC(C)(C)C)C(=O)c1cccc(Cl)c1,-3.3%
CC(=NC(C)c1ccccc1)c1c(O)[nH]c(=O)[nH]c1=O (configuration not stated),-17.1%
COc1cc(CC(=O)OCC2=C[C@H]3[C@@H]4C(C)(C)[C@]4(OC(C)=O)[C@H](OC(=O)Cc4ccccc4)[C@@H](C)[C@]3(O)[C@@H]3C=C(C)C(=O)[C@@]3(O)C2)ccc1O,-17.7%
CC1(C)N=C(N)N=C(N)N1c1cccc(C(=O)Nc2ccc(S(=O)(=O)F)cc2)c1,-3.0%
CN1CCN(c2ccc(C(N)=O)cc2N)CC1,-29.2%
CCOC(=O)N(c1ccccc1)P1(=S)OCCO1,?
COP(=O)(OC)C(Nc1ccccn1)c1ccccc1 (configuration not stated),-4.7%
C[C@@]12CC[C@H](O)C[C@@H]1CC[C@@H]1[C@@H]2CC[C@@]2(C)[C@@H](C3=CC(=O)OC3)[C@H](O)C[C@]12O,-3.3%
CCOc1cc(C=O)ccc1O,-15.5%
CCOC(=O)C1SC2(C(F)(F)F)CC1(O)c1c(C)cc(C)nc1O2 (configuration not stated),-15.8%
CC(C)c1ccc(O)c(CN2CCN(c3ccccc3)CC2)c1,-35.8%
Cc1ccc2c(c1)CC1(CN2C)C(=O)NC(=O)N(c2cc(C)ccc2C)C1=O (configuration not stated),-16.2%
CCCOP(=O)(O)c1c([N+](=O)[O-])cc(C(F)(F)F)cc1[N+](=O)[O-] (tested in a mixture with another compound),-13.2%
OCC1(CO)COC(c2cccnc2)N1 (configuration not stated),-3.8%
c1ccc2sc(NC3=NCCN3)nc2c1,-2.7%
Cc1ccc(-n2c(C)cc(/C=C3/C(=O)NC(=O)N(Cc4ccco4)C3=O)c2C)cc1,?
O=c1cc(C(F)(F)F)c2cc3c4c(c2o1)CCCN4CCC3,-16.7%
CC1N(O)C2CCCCCC2N1O (configuration not stated),-3.4%
C[C@H](CC(C#N)(c1ccccc1)c1ccccc1)N1CCCCC1,-2.2%
C=CCN1CCc2cccc3c2C1Cc1ccc(O)c(O)c1-3 (configuration not stated),?
C[C@@H]1C[C@@H](O)[C@@]2(O)[C@]13CC(=O)OC[C@]2(C)[C@@](C)(O)C(=O)C3,-4.8%
COc1ccc(N2C(=O)NC(=O)/C(=C/c3cccc(OC(=O)c4cccs4)c3)C2=O)cc1Cl,31.6µM*
CCCCC1(C2CCCC2)Cc2cc(OCCCC(=O)O)c(Cl)c(Cl)c2C1=O (configuration not stated),-0.1%
Cc1ccc(C2N(c3cc(C)on3)C(=O)C3CCCN32)cc1 (configuration not stated),-10.1%
CCC(=O)O[C@@](Cc1ccccc1)(c1ccccc1)[C@@H](C)CN(C)C,-7.3%
CNC(=O)ON(C(=O)NC)C1N(C)C(=S)SC1(C)C (configuration not stated),-4.5%
Cc1ccc(NP(=O)(Oc2ccccc2F)Oc2ccccc2F)cc1,-25.8%
O=C(CN1CCCCC1)c1ccccc1Cl,-18.1%
C[C@H]1CCCC=CC2C[C@H](O)C[C@@H]2[C@H](O)/C=C\C(=O)O1 (some centres not stated),-14.2%
CC(=O)OC1(c2ccccc2)CC(C(C)(C)C)CN(C(C)(C)C)C1 (configuration not stated),-6.3%
COc1ccc2c(c1OC)C(=O)OC2C1c2cc3c(cc2CCN1C)OCO3 (configuration not stated),-10.9%&-8.0%&-3.2%&-29.1%&-9.4%
CC1(C)Cc2c(c(N3CCOCC3)nc3sc4c(NCc5ccccc5)nnnc4c23)CS1,?
CC1=CC(=C2C(=O)NC(=S)NC2=O)C=C(C(F)(F)F)N1C,-7.9%
O=C1CC(=O)N(c2ccc3c(c2)OCO3)C(=O)N1,-4.5%
Cc1cc(/C=C2\C(=O)NC(=S)N(C)C2=O)c(C)n1C1CCCCC1,-1.3%
CN=C(SCc1ccccc1)c1c(O)n(C)c(=O)n(C)c1=O,-7.7%
CCOC(=O)c1c(/N=C/c2c(O)n(-c3cccc(C)c3)c(=O)[nH]c2=O)sc2c1CCCC2,-22.3%
Nc1nnc(CCN2CCCCC2)s1,-12.4%
O=P(O)(O)COc1ccccc1O,-8.6%
CC(C)(O)C1C2OC(=O)C1[C@]1(O)CC3O[C@@]34C(=O)OC2[C@@]14C (some centres not stated),-8.8%
Cc1ccc(N)c(N)c1,-10.9%
CCCN1CCO[C@@H]2c3cc(O)ccc3OC[C@H]21,-3.0%&-7.1%
Cc1c(C=O)c2ccccc2n1Cc1ccc([N+](=O)[O-])cc1,-9.2%
COc1ccc(CN2CCN(c3ccccc3)CC2)c(C)c1C,-4.3%
O=C(NC(=C(Cl)Cl)P(=O)(c1ccccc1)c1ccccc1)c1ccccc1,-5.1%
# Other entries.
SMILES,HPGD inh
c1ccc(N=NNc2ccccc2)cc1,-4.3%
NP(=O)(OCC(F)(F)F)Oc1cccc2ccccc12 (configuration not stated),-18.3%
N#CC(C#N)=NNc1cccc(Cl)c1,-23.9%
C=CCn1c(O)c(C=Nc2ccc(OC)cc2C)c(=O)[nH]c1=O,?
COCc1cc(C2SCC(=O)Nc3c2c(=O)[nH]n3C(C)C)ccc1OC (configuration not stated),-7.5%
Cc1c(C(=O)N2CCC3(CC2)OCCO3)oc2ccc(S(=O)(=O)N3CCCCC3)cc12,-7.2%
CN1CCC(N(C)c2ncnc3ccc(Br)cc23)CC1,-5.9%
COc1cccc(-n2c(C)nc3ccccc3c2=O)c1,-11.7%
O=C(COc1ccc(Cl)cc1)N1CCN(C/C=C/c2ccccc2)CC1,-12.9%

# High-throughput results from PubChem.

# These rows are one share of the data. The share of hits here may be higher or lower than overall.
